Mtb growth: M. tuberculosis H37Rv growth inhibitors, H37Rv strain (AID 1626); inhibition, % at 10 µM, or IC50 in µM where a hit was titrated; M. tuberculosis H37Rv growth inhibition; higher % means a stronger effect; actives 0.95% (n = 220,000);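 active means confirmed in a dose series; inconclusive means inhibition above 80% but not taken into the dose series; inactive means below 80% or under 30% at every dose of the series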;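 further: bacteria incubated seven days before Alamar blue readout; 0% = bacteria only wells and 100% = bacteria with antibiotic wells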
Mtb betalactam: beta-lactam sensitization of Mtb H37Rv, H37Rv; inhibition, % at 25 µM; AID 434955, 2010; actives 0.27% (n = 330,000); M. tuberculosis H37Rv growth with meropenem, percent inhibition; hits of this screen are not shown here;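 active means about 74% or more and at least 40 points above the plate without the antibiotic, then above 30% in a dose series; inconclusive means first-round hits that could not be retested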;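 further: growth measured after seven days incubation then overnight dye step; 0% = bacteria only wells and 100% = bacteria with antibiotic; twin plates without the antibiotic show which effects depend on it; some results filed as inactive read as strong as hits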
YopH inh: YopH tyrosine phosphatase inhibitors, primary screen, biochemical, fluorescence Ex485/Em525; actives 0.16% (n = 140,000); YopH tyrosine phosphatase [Yersinia enterocolitica]; AID 898, 2007; inhibition, %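 (about 10 µM by stock and volumes)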;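 active means inhibition of 50% or more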;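 further: controls were vehicle for no effect and minimum signal wells for full effect; inactives centre near -20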
RecA intein inh: Mtb RecA intein splicing inhibitors, primary screen, biochemical, fluorescence, HTS | cell-free RecA intein splicing | actives 0.75% (n = 290,000) | Protein RecA (Mycobacterium tuberculosis (strain ATCC 25618 / H37Rv)), P9WHJ3 | AID 2221, 2009 | inhibition, %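 (about 9 µM by stock and volumes)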; in the data active means inhibition above about 30%; inconclusive means no clear call, values can overlap the other calls;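 further: 0% = vehicle wells and 100% = reference inhibitor control wells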
Target sequence (P9WHJ3 whole entry, looked up): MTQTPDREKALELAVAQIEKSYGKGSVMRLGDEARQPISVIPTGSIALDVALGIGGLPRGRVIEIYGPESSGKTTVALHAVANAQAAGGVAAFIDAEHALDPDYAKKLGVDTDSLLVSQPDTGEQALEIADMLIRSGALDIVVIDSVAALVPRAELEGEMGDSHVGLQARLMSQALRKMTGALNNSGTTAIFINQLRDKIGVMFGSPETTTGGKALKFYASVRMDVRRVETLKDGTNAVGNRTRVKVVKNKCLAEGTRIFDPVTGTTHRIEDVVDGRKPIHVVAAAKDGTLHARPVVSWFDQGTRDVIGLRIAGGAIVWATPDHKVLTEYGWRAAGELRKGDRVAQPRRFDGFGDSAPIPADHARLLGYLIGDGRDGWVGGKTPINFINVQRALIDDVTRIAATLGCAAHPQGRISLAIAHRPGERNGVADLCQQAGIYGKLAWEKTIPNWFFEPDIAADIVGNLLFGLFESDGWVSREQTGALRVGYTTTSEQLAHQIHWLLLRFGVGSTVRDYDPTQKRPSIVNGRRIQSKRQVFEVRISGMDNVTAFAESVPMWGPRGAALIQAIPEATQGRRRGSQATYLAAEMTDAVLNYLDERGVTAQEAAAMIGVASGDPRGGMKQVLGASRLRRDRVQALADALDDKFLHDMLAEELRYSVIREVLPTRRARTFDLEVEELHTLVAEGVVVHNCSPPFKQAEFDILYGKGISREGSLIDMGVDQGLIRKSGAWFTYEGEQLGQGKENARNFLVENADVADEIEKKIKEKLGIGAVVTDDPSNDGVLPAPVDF
Arbovirus inh: antivirals against arbovirus infection, primary screen, cell-based, full library, 10K replicate subset; actives 0.37% (n = 200,000); inhibition, % at 10 µM; arbovirus infection cell-based antiviral screen; AID 1251, 2008;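 active means inhibition from about 30%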;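 further: bluetongue infection of BSR cells; cell survival read as ATP light after 72 h; 0% = infected wells without compound and 100% = uninfected wells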
Arbovirus inh repeat: second read-out of Arbovirus inh, no call of its own (marks repeat the call); inhibition, %; measured here: 10K subset replicate screen; many hits read low in the repeat;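 first of two repeat runs on a subset; 0% = infected and 100% = uninfected wells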
The depositor's hits bear a star; ? = inconclusive; / = not tested or not shown. Only part of the results is shown. The share of hits here may be higher or lower than overall.

SMILES	Mtb growth	Mtb betalactam	YopH inh	RecA intein inh	Arbovirus inh	others
O=C(CSc1oc(-c2cccs2)nc1S(=O)(=O)c1ccc(F)cc1)NCC1CCCO1 (configuration not stated)	0%	7	-51	0.2	-5
CCCc1nc(SCC(=O)Nc2cc(C)on2)c2ccccc2n1	-5%	-3	-19	7.8	-1
O=C1NC(=O)C(Sc2ccccc2[N+](=O)[O-])C(=O)N1	/	1	/	-0.3	/
COc1ccc(CC(=O)NNS(=O)(=O)c2ccccc2[N+](=O)[O-])cc1OC	/	9	/	-3.6	/
Nc1nc2ccc(C(=O)N3CCCCC3)cc2s1	/	-4	/	-2.6	/
Cc1ncc(CN2CCCC(C(=O)Nc3ccc(-c4cccc(F)c4)cc3)C2)n1C (configuration not stated)	/	?	/	5.3	/
COc1ccccc1N(C)S(=O)(=O)c1ccc(C(=O)NCC(C)C)cc1	-15%	-12	9	0.5	4
COCCC(=O)N1CCC(Oc2ccc(C(=O)NCCCC3CCCC3)cc2)CC1	/	-4	/	-0.6	/
O=C(CCN1C(=O)c2ccncc2C1=O)Nc1cc(F)ccc1F	-13%	-11	/	-2.0	14
COc1ccc(CCNC(=O)C/C(C)=N/NC(=O)Cc2cccc3ccccc23)cc1OC	-5%	-17	/	/	/
COc1ccc(OCc2nnc3n2N=C(c2ccc(Br)cc2)CS3)cc1	6%	?	-40	2.8	11	Arbovirus inh repeat=1
CCNC(=S)N/N=C(\C)c1cccc(C(F)(F)F)c1	4%	-1	/	-2.6	3
O=C(NC1=NCCS1)C12CC3CC(CC(C3)C1)C2	44%	63	/	-0.3	2
O=C(Nc1cccnc1)c1c(O)c2c(n(Cc3ccccc3)c1=O)CCCC2	6%	96	-34	1.6	-27
Cc1c(C)n(Cc2ccccc2)c2ncnc(NN)c12	/	2	/	-1.5	/
O=C(CN1CCCC1)Nc1cccc(Cl)c1Cl	/	6	/	0.7	/
COCC(=O)N(Cc1ccco1)c1nnc(C2CCOC2)s1 (configuration not stated)	-3%	4	10	0.7	-6
COc1ccccc1OCc1nnc(SCC(=O)N2CCCCC2)n1-c1ccccc1	-2%	-4	-36	-0.2	2
COC(=O)c1cc(S(=O)(=O)NCc2ccccc2OC)cn1C	/	-6	/	3.2	/
COc1cc(-c2nnc(COC(=O)CSc3cc(C)c4ccccc4n3)o2)cc(OC)c1OC	-14%	-9	-41	4.3	0
COc1cc(NC(=O)c2cc3cccc(OC)c3o2)cc(C(=O)Nc2cccc(C(F)(F)F)c2)c1	-1%	-7	/	2.3	/
O=C(CCn1c(=S)[nH]c2ccccc2c1=O)NCC1CCCO1 (configuration not stated)	-4%	?	7	2.2	5
CCOC(=O)c1cc(CC)sc1NC(=O)c1ccc(N2CCOCC2)c([N+](=O)[O-])c1	-1%	-6	-48	-11	-3
COC(=O)c1sccc1-n1cc(C#N)c(=O)n(C)c1=O	-1%	-3	/	0.1	/
CCCCNC(=O)[C@H](Cc1c[nH]c2ccccc12)NC(=O)c1ccccc1Cl	2%	3	-20	2.4	1
Cc1ccccc1OCC(=O)Nc1ccc(N2CCN(C(=O)c3ccco3)CC2)cc1	/	34	/	-0.1	/
Cn1cc(CN2C[C@]3(C)C[C@H]2CC(C)(C)C3)c(-c2ccc3c(c2)OCCO3)n1	1%	0	/	/	-2
COCCNC(=O)CN1C2CCC1CC(O)(c1cccnc1)C2 (configuration not stated)	/	1	/	-0.9	/
Cc1ccccc1OCc1nnc(SCC(=O)N2c3ccccc3Sc3ccc(Cl)cc32)o1	-3%	-4	-1	12	1
O=C(Cc1ccc(Cl)cc1Cl)NCc1cccnc1	/	1	/	0.9	/
CC1CCC(NC(=O)c2ccc3nc[nH]c3c2)CC1 (configuration not stated)	-3%	-4	-112	0.9	-5
O=C(CS(=O)(=O)Cc1ccccc1)Nc1ccc2c(c1)OCO2	-14%	-5	/	2.8	0
O=C(CC(Nc1cccc(Cl)c1Cl)C(=O)OCC(=O)c1cccs1)c1ccccc1 (configuration not stated)	-6%	4	-4	1.3	6
N/C(CCS(=O)(=O)c1ccc(Cl)cc1)=N\OC(=O)c1ccccc1Cl	-3%	-5	/	/	/
O=C(Nc1nccs1)c1ccc(Cl)nc1	/	4	/	-2.1	/
CC1(C)Cc2ccccc2C(=C(C#N)C#N)N1	-1%	-3	-19	-0.6	11
Cc1sc2ncnc(N3CCC(C(=O)NNC(=O)c4ccc(Cl)cc4)CC3)c2c1C	/	1	/	-1.5	/
CC(C)n1c(=S)[nH]c2ccccc21	0%	7	-12	-3.2	5
CCCn1nc(NS(=O)(=O)c2ccccc2)c2cc3ccccc3nc21	-12%	-8	/	-1.8	7
Cc1ccc(Cl)cc1N1CCN(S(=O)(=O)c2c(C)noc2C)CC1	/	49	/	11	/
CCOC(=O)NC(CC(=O)O)c1ccc(OC)c(OC)c1 (configuration not stated)	-4%	7	-12	-0.8	-2
C/C(=N/Nc1ccccc1[N+](=O)[O-])c1ccc([N+](=O)[O-])cc1	/	0	/	0.0	/
Cc1ccc(NS(=O)(=O)c2cccc(C(=O)N/N=C/c3ccc4c(c3)OCCO4)c2)c(C)c1	3%	3	-20	-1.0	-10
O=C(CN1C(=O)COc2ccccc21)N1CCc2ccccc21	-12%	-2	-2	-2.7	0
COc1ccc(-c2nn(-c3ccccc3)cc2/C=N/N=C(N)N)cc1OC	13µM*	80	-18	4.3	-31
C=CCOC(=O)C1=C[C@@H](c2cn(C(C)=O)c3ccccc23)C[C@@H](OCCCCO)O1	-3%	-6	/	3.6	3
Fc1ccccc1COc1ccc(Br)cc1CNCc1ccncc1	0%	42	-11	1.9	-18
COC(=O)c1ccccc1NC(=O)CSc1nnc(-c2ccncc2)o1	-1%	7	-31	1.4	2
N#CCCn1cc(C(N)=O)c(-c2cccs2)n1	-2%	0	/	-1.1	1
O=C(c1ccc(NC2=NC3CS(=O)(=O)CC3S2)cc1)N1CCN(c2ccc(F)cc2)CC1 (configuration not stated)	/	-7	/	-3.6	/
O=C1C2CC(O)CN2C(=S)N1Cc1ccccc1 (configuration not stated)	?	-12	/	1.7	/
Cc1ccc(C(=O)NCc2ccccn2)c(Cl)c1	6%	-1	-8	2.3	5
O=C(COc1ccc(Br)cc1)Nc1ccncc1	13%	88	-26	-2.7	17
S=C(NCCc1ccccn1)Nc1ccccc1Cl	-4%	-1	/	-0.1	3
CC(=O)Nc1nc(=S)ss1	-7%	-6	-54	-5.2	4
C/C(=N\Nc1nccnc1Cl)c1ccc(Cl)c(Cl)c1	/	0	/	-1.4	/
NC(=O)c1nsc(C(=O)N(c2cccc(F)c2)C(C(=O)NCC2CCCO2)c2c[nH]c3ccccc23)c1N (configuration not stated)	/	8	/	4.8	/
COc1cc(/C=C(/C#N)c2ccccc2)ccc1Oc1ccc([N+](=O)[O-])cn1	4%	-6	-39	6.6	30
C/C(=N\NC(=O)COc1ccc(C)cc1[N+](=O)[O-])c1cccs1	-3%	-3	/	-3.8	-2
CC(C)Oc1ccc(CC2CCC(=O)N(C)C2=O)cc1 (configuration not stated)	19%	-2	-29	1.0	4

Random excerpt: 6 entries already listed, in no set order.
SMILES	Mtb growth	Mtb betalactam	YopH inh	RecA intein inh	Arbovirus inh	others
O=C(CN1C(=O)COc2ccccc21)N1CCc2ccccc21	-12%	-2	-2	-2.7	0
N#CCCn1cc(C(N)=O)c(-c2cccs2)n1	-2%	0	/	-1.1	1
COc1cc(/C=C(/C#N)c2ccccc2)ccc1Oc1ccc([N+](=O)[O-])cn1	4%	-6	-39	6.6	30
Cc1ccc(C(=O)NCc2ccccn2)c(Cl)c1	6%	-1	-8	2.3	5
Fc1ccccc1COc1ccc(Br)cc1CNCc1ccncc1	0%	42	-11	1.9	-18
O=C(COc1ccc(Br)cc1)Nc1ccncc1	13%	88	-26	-2.7	17

(listing goes on)
SMILES	Mtb growth	Mtb betalactam	YopH inh	RecA intein inh	Arbovirus inh	others
CC(C)C(=O)NCc1cc(-c2ccc(Cl)cc2)no1	-3%	2	/	0.5	1
CCOC(=O)c1cnc2ccc(OC)cc2c1NCCc1ccc(OC)c(OC)c1	9%	1	-7	-0.3	1
COc1ccc(C)cc1S(=O)(=O)N1CCN(C(=O)c2ncoc2-c2ccccc2F)CC1	/	3	/	1.6	/
COc1ccccc1CNC(=O)COC(=O)CCN=C1NS(=O)(=O)c2ccccc21	/	1	/	-1.0	/
O=C(c1n[nH]c2c1CCCC2)n1ccnc1	1%	3	-29	-6.3	1
O=C(NCc1ccc2c(c1)OCO2)c1ccc(C2SCC(=O)N2Cc2ccco2)cc1 (configuration not stated)	-13%	-3	-23	9.6	-7
COc1ccc(CCNCc2csc3nc4ccccc4n23)cc1OC	4%	/	2	0.0	16
COc1cccc(C2=CC(=O)CC(c3ccco3)C2)c1 (configuration not stated)	5%	0	/	5.8	/
Cc1c(NC(=O)c2ccc(N(Cc3ccccc3)S(C)(=O)=O)cc2)c(=O)n(-c2ccccc2)n1C	-2%	0	/	-0.2	0
COC(=O)c1ccc(NC(=O)CSc2nc(=O)cc(N)n2-c2ccccc2)cc1	-1%	-1	/	0.0	9
O=c1c2ccccc2nc(-c2ccccc2)n1-c1ccc(O)cc1	5%	0	/	0.7	3
O=C(Nc1ccc(Cl)cc1)N1CC=CCC1	-4%	-8	-30	2.9	-1
CC1=CC(C)(C)N2C(=O)C3(C(C#N)=C(N)Oc4cc(C)oc(=O)c43)c3cc(C)cc1c32 (configuration not stated)	-6%	-4	-18	1.8	/
CC1(C)CC(NC(=O)c2sc3cc(Cl)ccc3c2Cl)CC(C)(C)N1	>100µM*	-2	/	-0.2	-26
Cn1sc(=O)c2cc(S(=O)(=O)NC3CC3)ccc21	-7%	12	/	-1.6	/
COc1cccc(CNC(=O)CSc2nc(=O)n(Cc3ccncc3)c3c2CCC3)c1	/	-6	/	5.1	/
Cn1c(=O)n(C)c2cc3[nH]cnc3cc21	/	-2	/	1.9	/
COc1ccc(CC(=O)OCC(=O)Nc2ccc(Cl)c(S(=O)(=O)N(C)C)c2)cc1	2%	1	/	-0.1	1
COc1ccc(CCNC(=O)COc2cc(O)c3c(c2)OC(C)(C)CC3=O)cc1	/	-6	/	0.6	/
COC(=O)c1ccc(C(=S)N2CCCCC2)cc1	-2%	-9	/	-1.1	5
Cc1nn(-c2ccccc2)c(Cl)c1/C=N/Nc1nnc(C)c(=O)[nH]1	1%	1	/	-0.1	5
C=CCNC(=O)c1ccccc1NC(=O)c1ccccc1SC	-5%	-8	/	-0.6	-2
Cc1nc2c(Cl)c(C)nn2c2c1CCC2	-4%	2	/	0.0	13
COCCN1CC(C(=O)N2CCC(Oc3ccccc3OC)CC2)CCC1=O (configuration not stated)	/	-3	/	0.8	/
O=C(CCCC(=O)Nc1cccc(Br)c1)N/N=C/c1cc([N+](=O)[O-])ccc1O	/	15	/	6.3	/
CC(=O)Nc1ccc(C(=O)OCC(=O)c2ccc(F)cc2)cc1	4%	5	0	3.9	2
Cc1nc2c(-c3ccccc3)c(C)nn2c(N)c1-c1ccccc1	8%	51	-11	11	-21
Cc1cc(NC(=O)CCC(=O)N(Cc2ccco2)C(C(=O)NC2CCCC2)c2ccccc2F)no1 (configuration not stated)	/	2	/	1.5	/
N#Cc1ccccc1CSc1nc(N)cc(N)n1	/	6	/	-4.5	/
Cc1ccc(N(c2ncnc(N)c2[N+](=O)[O-])C2CCCCC2)cc1	-5%	-3	-24	-0.5	0
CC(OC(=O)c1nsc(Cl)c1Cl)C(=O)NC1CCCCC1 (configuration not stated)	/	1	/	-5.7	/
O=c1nc(N2CCCCCC2)nc(N2CCCCCC2)[nH]1	-10%	-4	-10	1.6	3
CCC1(C)COC(C)(CC(=O)NNC(=O)Nc2ccccc2)OC1 (configuration not stated)	-2%	-4	/	-0.8	2
Nc1c(C(=O)NCc2ccco2)sc2nc(N3CCOCC3)c3c(c12)CCCC3	-2%	-3	-43	-1.0	-8
Cc1ccc(C(Sc2ccccc2)C(Cn2cncn2)C(=O)c2ccccc2)cc1 (configuration not stated)	8%	23	11	7.2	-24
O=C(Nc1nnc(CCOCCOCCc2nnc(NC(=O)c3ccco3)s2)s1)c1ccco1	-8%	4	-16	-0.9	3

In the list so far, 2 have a CF3 group:
SMILES	Mtb growth	Mtb betalactam	YopH inh	RecA intein inh	Arbovirus inh	others
CCNC(=S)N/N=C(\C)c1cccc(C(F)(F)F)c1	4%	-1	/	-2.6	3
COc1cc(NC(=O)c2cc3cccc(OC)c3o2)cc(C(=O)Nc2cccc(C(F)(F)F)c2)c1	-1%	-7	/	2.3	/
